Bioassay records as filed in PubChem BioAssay.
Choline anaer gr = blocks anaerobic gram-negative growth on choline; Gram-negative bacterium anaerobic choline minimal medium, absorbance growth; active compounds read low; many inactives read as strong as hits in the columns shown; calls only; 55,000 compounds, 0.2% hits;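 active = growth z-score on choline under -2 at 7 or 20 h with little or no fall on glycerol, limits in tiers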;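 note: stock transfer was 300 nL into about 50 µL; the organism is E. coli; final concentration not given here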
Choline anaer gr early = further read-out of Choline anaer gr, marked with its call; z-score; measured here: choline growth z-score, timepoint 1;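 score of optical density at 7 h as mean of two plates; lower means less growth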
* marks the source's active call; other numbers are inactive results; & = joins results of further samples. Some of the compounds tested. The share of hits here may be higher or lower than overall.

`O=C1CC(c2ccsc2)c2c(-c3ccc(Cl)cc3)nn(-c3ccccc3)c2N1` (configuration not stated) gave Choline anaer gr inactive and Choline anaer gr early 0.81.
Screening COc1ccccc1NC(C)(C)c1nnnn1-c1ccccc1C returned Choline anaer gr inactive and Choline anaer gr early -0.68.
Screening O=C(CNC(=O)c1ccc(-c2noc(C3CCCC3)n2)cc1)NC1CCCc2ccccc21 (configuration not stated) returned Choline anaer gr inactive and Choline anaer gr early -0.27.
Screening O=C(CSc1nc2ccccc2c(=O)n1CC1COc2ccccc2O1)NCc1ccccc1 (configuration not stated) returned Choline anaer gr inactive and Choline anaer gr early 1.8.
Screening O=C(NCCCc1ccccc1)c1cnc2sc(N3CCCCC3)nn2c1=O returned Choline anaer gr inactive and Choline anaer gr early 0.04.
For O=C(Cn1nc2c(SC3CCCCC3)nccn2c1=O)Nc1ccc(Br)cc1 the results were Choline anaer gr inactive and Choline anaer gr early -0.2.
Screening CCn1cc(C2CC(=O)Nc3c2c(C)nn3-c2nc3ccccc3[nH]2)cn1 (configuration not stated) returned Choline anaer gr inactive and Choline anaer gr early -0.22.
Cc1cc(C)nc(NC(c2ccccn2)c2cc(C)sc2NC(=O)c2ccccc2)n1 (configuration not stated) was read as Choline anaer gr inactive and Choline anaer gr early -0.67.
`COC(=O)C1CCN(C(=O)Cc2csc(NC(=O)c3ccccc3)n2)CC1` gave Choline anaer gr inactive and Choline anaer gr early -0.41.
Screening Cc1ccc(C2=Nc3cccnc3N(CC(=O)NCc3ccccc3Br)C(=O)C2)cc1C returned Choline anaer gr inactive and Choline anaer gr early 1.1.
CCC1Cn2c(C(=O)NCCCOC(C)C)cc3c(Cl)ccc(c32)O1 (configuration not stated) was read as Choline anaer gr inactive and Choline anaer gr early 2.3.
Cc1cc(C)n(CCc2nc(-c3ccc(Cl)cc3)no2)n1 was read as Choline anaer gr inactive and Choline anaer gr early -1.2.
CC(C)Cn1c(=O)c2cc(Cl)ccc2n2c(SCc3ccccc3F)nnc12 was read as Choline anaer gr inactive and Choline anaer gr early -1.9.
`Cc1c(-c2nc(-c3ccccc3)no2)nnn1-c1ccc(F)c(Cl)c1` gave Choline anaer gr inactive and Choline anaer gr early 1.4.
Screening CCN1CCN(c2nnc(-n3cccc3CNc3ccc(Br)cc3F)s2)CC1 returned Choline anaer gr inactive and Choline anaer gr early -0.05.
`COC(=O)c1cn(-c2ccc(C)cc2)c(=O)c2ccccc12` gave Choline anaer gr inactive and Choline anaer gr early -0.08.
`COc1ccc(C(=O)Nc2ccc(OC)c(Cl)c2)c(OC)n1` gave Choline anaer gr inactive and Choline anaer gr early -0.19.
`COc1cccc(NC(=O)CSc2nnc3[nH]c(=O)c(C)nn23)c1` gave Choline anaer gr inactive and Choline anaer gr early -0.73.
For Cn1c(=O)c(-c2noc(C(=O)N3CCOCC3)n2)nn(-c2ccccc2)c1=O the results were Choline anaer gr inactive and Choline anaer gr early -0.62.
`CC1CCCCN1CCNC(=O)CN1C(=O)C2CCCCN2c2ccc(S(=O)(=O)N(C)C)cc21` (configuration not stated) gave Choline anaer gr inactive and Choline anaer gr early -1.2.
Screening O=C(c1ccsc1)N1CCC(Oc2cc(N3CCCC3)ncn2)C1 (configuration not stated) returned Choline anaer gr inactive and Choline anaer gr early 0.47.
O=C(C1CCN(c2ncccc2-c2nc(-c3ccccc3)no2)CC1)N1CCN(c2ccccc2)CC1 was read as Choline anaer gr inactive and Choline anaer gr early 1.5.
Screening Cc1cc2c(cc1S(=O)(=O)N1CCc3ccccc3C1)OCC(=O)N2Cc1noc(C2CC2)n1 returned Choline anaer gr inactive and Choline anaer gr early 2.7.
For CCC(=O)n1nc(-c2ccccc2Cl)nc1N the results were Choline anaer gr inactive and Choline anaer gr early -0.01.
For c1ccn2cc(-c3ccc4c(c3)OCO4)cc2c1 the results were Choline anaer gr inactive and Choline anaer gr early 0.37.
Cc1ccc(S(=O)(=O)Nc2ccc3nc(N4CCN(C)CC4)cc(C(=O)O)c3c2)cc1C was read as Choline anaer gr inactive and Choline anaer gr early 0.29.
For O=C(/C=C/c1ccc(/C=C/C(=O)Nc2ccc(C3=NCCN3)cc2)cc1)Nc1ccc(C2=NCCN2)cc1 the results were Choline anaer gr inactive and Choline anaer gr early 0.03.
For CCOC(=O)c1nc(NCCc2c(C)nn(CC)c2C)c2c(C)noc2n1 the results were Choline anaer gr inactive and Choline anaer gr early 0.68.
`O=C1CSc2ccc(S(=O)(=O)NC3CCCCC3)cc2N1` gave Choline anaer gr inactive and Choline anaer gr early -0.15.
C=CCn1c(=O)c2ccc(C(=O)NC(C)C)cc2n2c(=O)n(CC(N)=O)nc12 was read as Choline anaer gr inactive and Choline anaer gr early 0.11.
Cc1[nH]c(-c2nnc(C3CCC3)o2)c(C)c1S(=O)(=O)N(C)Cc1ccco1 was read as Choline anaer gr inactive and Choline anaer gr early -0.64.
`O=C(CCC(=O)N1CCCN(c2nc3cccnc3s2)CC1)NCCc1c[nH]c2ccccc12` gave Choline anaer gr inactive and Choline anaer gr early 1.3.
For c1ccc(-c2nc3nc4c(c(Nc5ccc6c(c5)OCCO6)n3n2)CCC4)cc1 the results were Choline anaer gr inactive and Choline anaer gr early -1.3.
Screening CCN1CCCc2cc(C(=O)N3CCC(C)CC3)sc21 returned Choline anaer gr inactive and Choline anaer gr early 0.46.
CCCCC[C@H](O)/C=C/[C@@H]1[C@@H](C/C=C\CCCC(=O)N(C)C)[C@@H](O)C[C@H]1O was read as Choline anaer gr inactive and Choline anaer gr early -1.2.
For O=c1ccc(N2CCCN(S(=O)(=O)c3cccc4nsnc34)CC2)nn1-c1ccccc1 the results were Choline anaer gr inactive and Choline anaer gr early -0.59.
`Cc1ccc(Cn2cc(C(=O)Nc3ccc(Br)cc3)ccc2=O)cc1` gave Choline anaer gr inactive and Choline anaer gr early 2.2.
Screening O=C1CC(c2ccccc2)Cc2[nH]c(=O)c(-c3nc(-c4ccc(Cl)cc4)cs3)cc21 (configuration not stated) returned Choline anaer gr inactive and Choline anaer gr early -0.17.
For N=c1ccn2c(n1)OC1[C@@H](O)[C@@H](CO)O[C@H]12 (some centres not stated) the results were Choline anaer gr inactive and Choline anaer gr early -0.12.
For CC1=C(c2ccc(C)c(C)c2)S(=O)(=O)N=C1N1CCc2ccccc2C1 the results were Choline anaer gr inactive and Choline anaer gr early -2.5.
For Cc1ccc(NC(=O)CN2C(=O)C(C)(C)c3ccccc32)nc1 the results were Choline anaer gr inactive and Choline anaer gr early -1.1.
`Cc1nn(-c2ccc3nnc(C)n3n2)c(C)c1CCC(=O)Nc1cc(F)ccc1F` gave Choline anaer gr inactive and Choline anaer gr early 0.54.
`Cc1c(O)c(=O)ccn1C` gave Choline anaer gr inactive and Choline anaer gr early 0.65&-0.34.
Screening CCN(CC)S(=O)(=O)c1ccc2c(c1)nc(C(F)(F)F)n2CCC(=O)Nc1ccc(C)c(C)c1 returned Choline anaer gr inactive and Choline anaer gr early -0.26.
`CCOCCCNC(=O)C1c2c(n(C)c3ccccc23)SCC(=O)N1c1cccc(OC)c1` (configuration not stated) gave Choline anaer gr inactive and Choline anaer gr early -0.64.
`COc1ccc(N2CCN(C(=O)CCc3nc4sc5c(c4c(=O)[nH]3)CCCCC5)CC2)cc1` gave Choline anaer gr inactive and Choline anaer gr early 0.27.
For CC1CCN(C(=O)C2CCCN(c3ccnc(-c4ccc(F)cc4)n3)C2)CC1 (configuration not stated) the results were Choline anaer gr inactive and Choline anaer gr early -0.44.
Screening COc1ccc(NS(=O)(=O)c2ccc3c(c2)N(C(C)=O)CCCS3)cc1OC returned Choline anaer gr inactive and Choline anaer gr early 0.8.
Screening O=c1c(S(=O)(=O)c2ccc(F)cc2)c[nH]c2cc(F)ccc12 returned Choline anaer gr inactive and Choline anaer gr early -1.2.
`CC(=O)N1CCCc2cc(C(=O)Nc3ccc(C)cc3)ccc21` gave Choline anaer gr inactive and Choline anaer gr early -0.93.
For COCCCNc1ncnc2sc(C(=O)O)c(C)c12 the results were Choline anaer gr inactive and Choline anaer gr early -0.25.
For CCCN1C(=O)c2ccccc2Sc2cc(-c3noc(-c4sc(C)nc4C)n3)ccc21 the results were Choline anaer gr inactive and Choline anaer gr early 0.27.
CCCCC(CC)CN1CN(CC(CC)CCCC)CC(C)(N)C1 (configuration not stated) was read as Choline anaer gr inactive and Choline anaer gr early -1.8.
`CC(C)c1nnc(-c2ccc(S(=O)(=O)N3CCOCC3)o2)o1` gave Choline anaer gr inactive and Choline anaer gr early -1.2.
For COc1ccc2cc3c(nc2c1)N(C(=O)c1cccc(Br)c1)CC3 the results were Choline anaer gr inactive and Choline anaer gr early 2.4.
Screening C=CCn1c(CN(c2ccc(F)cc2)S(C)(=O)=O)nnc1SCC(=O)c1ccc(Cl)cc1 returned Choline anaer gr inactive and Choline anaer gr early 1.7.
For CCCn1c(C)ccc(-c2noc(CCCC(=O)N3CCCC3)n2)c1=O the results were Choline anaer gr inactive and Choline anaer gr early -0.2.
`O=C(NCc1csc(-c2ccccc2)n1)[C@H]1CSCN1C(=O)c1ccccc1Cl` gave Choline anaer gr inactive and Choline anaer gr early 0.54.
CN(C)C(=O)C1=CCN(C(=O)NC2CCCCC2)CC1 was read as Choline anaer gr inactive and Choline anaer gr early 0.08.
Screening Cn1c(=O)n(CC(=O)N2CCCC2)c(=O)c2cc(S(=O)(=O)NCCC3=CCCCC3)ccc21 returned Choline anaer gr inactive and Choline anaer gr early -0.91.

Sorted by SMILES length (highest first): 3 of the compounds above.
Screening C=CCn1c(CN(c2ccc(F)cc2)S(C)(=O)=O)nnc1SCC(=O)c1ccc(Cl)cc1 returned Choline anaer gr inactive and Choline anaer gr early 1.7.
For CCCN1C(=O)c2ccccc2Sc2cc(-c3noc(-c4sc(C)nc4C)n3)ccc21 the results were Choline anaer gr inactive and Choline anaer gr early 0.27.
Screening O=c1c(S(=O)(=O)c2ccc(F)cc2)c[nH]c2cc(F)ccc12 returned Choline anaer gr inactive and Choline anaer gr early -1.2.

Next part
`Cc1ccc(NC(=O)c2cc(CN3CCCC3)on2)c(C)c1` gave Choline anaer gr inactive and Choline anaer gr early -0.71.
CCC(=O)N1c2ccccc2CC1C(=O)NC(C)C (configuration not stated) was read as Choline anaer gr inactive and Choline anaer gr early -0.29.
Screening Cc1ccc(OCC(=O)Nc2cc3c(cc2Sc2ccccc2)n(C)c(=O)n3C)cc1 returned Choline anaer gr inactive and Choline anaer gr early 1.1.
`Cc1cc(NC(=O)c2ccccc2Br)n(-c2ncnc3c2cnn3-c2ccc(F)cc2)n1` gave Choline anaer gr inactive and Choline anaer gr early -0.57.
Screening CCCCCCCCCC[Si](C)(C)CCC(=O)NC(Cc1ccc(C)cc1)c1ccccc1 (configuration not stated) returned Choline anaer gr inactive and Choline anaer gr early 0.34.
For COc1ccc(NC(=O)C2CCN(C(=O)C3Sc4ccccc4NC3=O)CC2)cc1OC (configuration not stated) the results were Choline anaer gr inactive and Choline anaer gr early -0.11.
Screening CCN1CCN(Cc2nc3cc(NC(C)=O)ccc3n2C(C)C)CC1 returned Choline anaer gr inactive and Choline anaer gr early -0.58.
O=C(CN1C(=O)CCc2cc(S(=O)(=O)N3CCCCC3)ccc21)N1CCOCC1 was read as Choline anaer gr inactive and Choline anaer gr early -0.65.
For CCCCN(CC)S(=O)(=O)N1CCC(C(=O)NCCc2ccccc2)CC1 the results were Choline anaer gr inactive and Choline anaer gr early -0.06.
Screening Cc1ccc(-n2nc(N3CCCN(C(=O)c4cc5ccccc5[nH]4)CC3)ccc2=O)cc1C returned Choline anaer gr inactive and Choline anaer gr early -0.62.
CCc1nc2c(cnn2-c2ccc(Cl)cc2)c(=O)n1CCc1ccc(Cl)cc1 was read as Choline anaer gr inactive and Choline anaer gr early 0.4.
For Cc1ccnc(N2CCCC(C(=O)NCc3cccc(Cl)c3)C2)n1 (configuration not stated) the results were Choline anaer gr inactive and Choline anaer gr early -0.23.
Cc1ccc(S(=O)(=O)n2nc(-c3cccc(C)c3)nc2N)cc1 was read as Choline anaer gr inactive and Choline anaer gr early 1.3.
`CCOC(=O)c1[nH]c(C)c(S(=O)(=O)Nc2cc(F)ccc2F)c1C` gave Choline anaer gr inactive and Choline anaer gr early 0.28.
`CCc1cc2c(NCCC(C)C)ncnc2s1` gave Choline anaer gr inactive and Choline anaer gr early -1.1.
For CCCCn1c(C2NC(=O)NC(C)=C2C(=O)OCC)nc2ccccc21 (configuration not stated) the results were Choline anaer gr inactive and Choline anaer gr early -0.31.
CC(C)OCCCNC(=O)CC1CCN(S(=O)(=O)c2cccs2)CC1 was read as Choline anaer gr inactive and Choline anaer gr early -0.84.
`O=C(O)CCC(=O)N1CCCC1C(=O)O` (configuration not stated) gave Choline anaer gr inactive and Choline anaer gr early 0.5.
`Cc1ccccc1NC(=O)c1ccc2nnc(C)n2c1` gave Choline anaer gr inactive and Choline anaer gr early -0.55.
COc1cc(-c2noc(-c3ccccc3)n2)ccc1OCC(=O)Nc1ccccc1Cl was read as Choline anaer gr inactive and Choline anaer gr early -0.88.

Entries from the list above that have a thiophene ring, fused or not (8):
`O=C1CC(c2ccsc2)c2c(-c3ccc(Cl)cc3)nn(-c3ccccc3)c2N1` (configuration not stated) gave Choline anaer gr inactive and Choline anaer gr early 0.81.
Cc1cc(C)nc(NC(c2ccccn2)c2cc(C)sc2NC(=O)c2ccccc2)n1 (configuration not stated) was read as Choline anaer gr inactive and Choline anaer gr early -0.67.
Screening O=C(c1ccsc1)N1CCC(Oc2cc(N3CCCC3)ncn2)C1 (configuration not stated) returned Choline anaer gr inactive and Choline anaer gr early 0.47.
Screening CCN1CCCc2cc(C(=O)N3CCC(C)CC3)sc21 returned Choline anaer gr inactive and Choline anaer gr early 0.46.
`COc1ccc(N2CCN(C(=O)CCc3nc4sc5c(c4c(=O)[nH]3)CCCCC5)CC2)cc1` gave Choline anaer gr inactive and Choline anaer gr early 0.27.
For COCCCNc1ncnc2sc(C(=O)O)c(C)c12 the results were Choline anaer gr inactive and Choline anaer gr early -0.25.
`CCc1cc2c(NCCC(C)C)ncnc2s1` gave Choline anaer gr inactive and Choline anaer gr early -1.1.
CC(C)OCCCNC(=O)CC1CCN(S(=O)(=O)c2cccs2)CC1 was read as Choline anaer gr inactive and Choline anaer gr early -0.84.
